Screens deposited in PubChem by several laboratories.
UCH37 inh: human UCH37 deubiquitinating enzyme inhibition | purified proteasome/UCH37, Ub-AMC cleavage fluorescence | inhibition, % (concentration not given with the values) | Q9Y5K5 | 330,000 compounds, 0.33% hits;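 active means mean of two replicates above 20%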;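 further: 0% = compound-free wells with enzyme and 100% = wells lacking proteasome; stock transfer was 100 nL into about 20 µL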
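Reagent: Ub-AMC substrate; assay system: Proteasome-associated human UCH37 deubiquitinase; controls: no-proteasome and no-compound wells; read-out: % inhibition of Ub-AMC cleavage fluorescence; timing: 30 min preincubation with enzyme, 25 min cleavage at room temperature; signal: AMC fluorescence from Ub-AMC cleavage, excitation 355 nm, emission 460 nm; buffer or medium: Tris-HCl pH 7.4 plus ovalbumin, ATP-MgCl2, DTT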
E coli growth: blocks Escherichia coli growth | OD600 absorbance (concentration not given with the values) | OD600, 23 h; hits give low values | 330,000 compounds, 0.21% hits;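 active means OD600 absorbance below the run mean of sample wells minus 3.6 SD, in any replicate, cut at about 0.56 in these data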;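 further: stock transfer was 300 nL into about 60 µL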
Vif A3G: HIV-1 Vif–A3G interaction blockers – biochemical, TR-FRET, GST-Vif 1-94, biotin-A3G peptide, dose response retest, primary screen (AID 1117319). TR-FRET GST-Vif / biotin-A3G peptide binding; higher % means a stronger effect; test concentration not given here; strong numbers were not always called active. one-dose inhibition, %; IC50 in µM for titrated hits. 260,000 compounds, 0.57% hits;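 active means above the screen mean plus three standard deviations and confirmed in dose response; inconclusive means results disagree or hit not tested in dose response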;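 further: Vif residues 1-94 fused to GST binding biotinylated APOBEC3G peptide 110-148; 0% = full assay without inhibitor and 100% = GST in place of GST-Vif; retest series ran down from 100 µM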
B2AR ag: human beta-2 adrenergic receptor agonism by FAP; P07550; 340,000 compounds, 0.43% hits; response, % (concentration not given with the values); Am2.2-beta2AR cells, FAP receptor internalization, flow cytometry; reference of the scale not given here;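 active means response above a set limit, near 3 SD of response in nonfluorescent compounds, cut at about 42% in these data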;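 further: stock transfer was 100 nL into about 11 µL; a reference agonist was the positive control; negative values mostly stem from fluorescent compounds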
A1 inh: inhibitors of the anti-apoptotic protein A1, read as caspase activation. MEF A1-2A-BIM cells, Caspase-Glo 3/7 luminescence, 3 h; percent of clofoctol response, vehicle zero. caspase activation, % (concentration not given with the values). AID 2462. 330,000 compounds, 0.066% hits;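 active means over half of replicate activation scores above 10%, or exactly half above 10 with the replicate mean above 10; inconclusive means replicate mean below 10 yet half the replicates above 10; inactive means over half of replicates below 10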;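 further: wells of about 30 µL received 50 nL stock; many hits fall short of the cut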
LANA-H2A inh: blocks KSHV LANA binding to histone H2A/H2B; AID 2629; inhibition, % (test concentration not listed); 320,000 compounds, 0.6% hits; cell-free LANA-H2A/H2B peptide, fluorescence polarization; in the data active means inhibition mostly above about 10%, no sharp cut-off; inactive means mostly below about 6.7%;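 further: stock transfer was 7.5 nL into about 10 µL; 0% = median of vehicle wells and 100% = median of positive control wells; one replicate is shown; the record names a cut of 25% in any replicate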
Target sequence (Q9QR71 whole entry, looked up): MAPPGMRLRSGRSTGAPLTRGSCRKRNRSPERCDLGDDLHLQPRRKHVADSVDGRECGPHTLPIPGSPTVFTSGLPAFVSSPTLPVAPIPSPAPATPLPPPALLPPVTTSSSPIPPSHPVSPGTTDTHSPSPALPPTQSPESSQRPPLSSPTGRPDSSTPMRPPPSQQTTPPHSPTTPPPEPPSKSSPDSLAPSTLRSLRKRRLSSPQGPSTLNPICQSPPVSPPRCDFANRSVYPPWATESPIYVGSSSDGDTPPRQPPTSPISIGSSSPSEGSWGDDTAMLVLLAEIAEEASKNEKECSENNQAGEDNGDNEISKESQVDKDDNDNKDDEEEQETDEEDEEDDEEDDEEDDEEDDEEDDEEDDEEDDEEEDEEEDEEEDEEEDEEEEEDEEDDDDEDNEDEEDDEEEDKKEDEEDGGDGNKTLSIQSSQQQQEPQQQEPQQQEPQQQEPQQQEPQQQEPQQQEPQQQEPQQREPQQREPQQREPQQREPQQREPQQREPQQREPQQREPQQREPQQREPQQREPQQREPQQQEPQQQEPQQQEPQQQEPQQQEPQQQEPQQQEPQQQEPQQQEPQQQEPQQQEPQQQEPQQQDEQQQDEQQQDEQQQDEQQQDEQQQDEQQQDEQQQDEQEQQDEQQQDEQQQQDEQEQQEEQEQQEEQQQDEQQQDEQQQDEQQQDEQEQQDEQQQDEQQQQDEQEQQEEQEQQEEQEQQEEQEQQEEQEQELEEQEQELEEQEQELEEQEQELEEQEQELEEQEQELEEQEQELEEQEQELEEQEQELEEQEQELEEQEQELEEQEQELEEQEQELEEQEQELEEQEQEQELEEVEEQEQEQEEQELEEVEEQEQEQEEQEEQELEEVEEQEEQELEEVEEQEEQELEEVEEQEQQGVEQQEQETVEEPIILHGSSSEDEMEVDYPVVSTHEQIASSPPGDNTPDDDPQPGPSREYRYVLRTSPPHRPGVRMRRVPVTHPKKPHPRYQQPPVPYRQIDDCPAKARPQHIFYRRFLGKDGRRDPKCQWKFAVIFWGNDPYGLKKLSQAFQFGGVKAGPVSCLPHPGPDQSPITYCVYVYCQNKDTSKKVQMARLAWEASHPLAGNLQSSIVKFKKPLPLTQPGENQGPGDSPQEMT
HNF4A DNA FP: change in binding of human HNF4 alpha to DNA; P41235; HNF4a-FITC DNA binding, fluorescence polarization, 1 h; activity change, % at 10 µM; 360,000 compounds, 0.3% hits; AID 1224865; in the data active means activity change above about 30%, passing the limit was not always enough;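 further: controls were the assay level and a saturating level of protein; the project sought stronger binding though the title names inhibitors; some compounds called inactive have numbers as strong as hits; positive values seem to mean higher polarization but the record does not say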
An asterisk follows results filed as active; ? = inconclusive; / = not tested or not shown; & = joins results of further samples.

SMILES	UCH37 inh	E coli growth	Vif A3G	B2AR ag	A1 inh	LANA-H2A inh	HNF4A DNA FP
CC(CNC(=O)c1ccc(N)cc1)NC(=O)c1ccc(N)cc1 (stereo unspecified)	-0.7	0.68	0%	5	-0.4	-3.3	-0.1
COc1ccccc1NS(=O)(=O)c1c(C)nc2sccn2c1=O	7.7	0.7	/	0	0.0	-0.3	1.3
C[C@H](NC(=O)c1ccco1)C(=O)OCC(=O)N1CC(=O)Nc2ccccc21	0.4	0.7	1%	-10	-0.2	-0.7	-3.7
O=C(C1CCN(C2CCN(Cc3ccc4cc(F)ccc4n3)CC2)CC1)N1CCCC1	5.4	0.65	/	-1	-0.7	4.6	2.6
O=C(CSCCO)Nc1ccc([N+](=O)[O-])cc1	5.5	0.68	?	-8	0.0	0.9	4.5
CCNCC(=O)Nc1c(C)cccc1C	-0.5	0.71	/	-12	-0.2	-0.3	0.3
S=C(NCCc1ccccc1)N1CCc2ccccc2C1	22*	0.64	-1%	-5	-0.1	11	-0.5
Cc1ccc(NC(=O)CCc2nnc3ccc(NCc4ccco4)nn23)nc1	1.8	0.63	/	0	0.1	-0.8	4.6
CCS(=O)(=O)N1CCN(C(=O)c2ccc(-c3ccccc3)cc2)CC1	5.1	0.7	2%	-5	0.7	2.3	-1.6
O=C(CSc1ccc(-c2ccco2)nn1)c1ccccc1	6.8	0.62	?	-17	-2.1	-1.9	4.7
Cc1c(NC(=O)C(C)N2C(=O)c3ccccc3C2=O)c(=O)n(-c2ccccc2)n1C (stereo unspecified)	-0.9	0.69	3%	1	0.5	-1.0	1.5
O=C(N/N=C/c1sc(N2CCOCC2)nc1-c1ccccc1)c1ccc(O)cc1	/	/	23%	-2	-0.6	3.5	-2.7
COC(=O)c1ccc(CSc2nnc(C)n2N)o1	4.1	0.7	0%	-6	0.4	-4.8	-1.3
Cc1ccc(N2CC(c3nc4ccccc4n3C)CC2=O)cc1C (stereo unspecified)	1.4	0.68	4%	-20	0.0	6.8	-2.1
COc1cc2c(cc1OC)C(C)N(Cc1ccc3c(c1)OCO3)CC2 (stereo unspecified)	1.1	0.77	?	-4	1.7	3.5	3.3
COC(=O)C1CN(C(=O)COc2cc(C)c(Cl)c(C)c2)c2ccccc2O1 (stereo unspecified)	-0.8	0.69	-8%	33	-0.1	-2.9	2.1
CCn1c(SCC(=O)c2ccc(NC(C)=O)c(OC)c2)nnc1-c1ccc(NS(C)(=O)=O)cc1	0.2	0.71	/	0	-0.4	1.1	2.6
N#CCCN(C(=O)COC(=O)c1cc(S(=O)(=O)N2CCOCC2)ccc1Cl)c1ccc(F)cc1	-0.1	0.68	-2%	6	0.4	-9.1	1.0
COc1ccc(OCCCC(=O)NCc2ccco2)cc1	0.6	0.68	0%	-3	-0.5	9.3	0.4
CCn1c(O)c(N=NC(=O)CNC(=O)c2ccco2)c2ccccc21	1.5	0.64	/	-8	0.4	-2.1	-2.6
COc1ccc(S(=O)(=O)N2CCCCCC2)cc1C(=O)NCCOc1ccc(C)cc1	/	/	/	1	1.1	-0.6	-3.3
O=c1[nH]c(-c2ccccc2O)nc2c1CCCC2	-7.7	0.72	19%	-3	0.1	3.3	-3.8
CCOc1ccc(CN2CCN(CC3=Cc4cccc(OC)c4OC3)CC2CCO)cc1 (stereo unspecified)	5.2	0.73	-5%	-11	1.2	2.8	-2.3
CC(C)Oc1ccc(CCC(=O)N/N=C/c2ccc3c(c2)OCO3)cc1	/	/	/	-5	-0.4	-1.0	-3.7
CCCCn1c(N)c(N(CCC(C)C)C(=O)COC(=O)c2ccco2)c(=O)[nH]c1=O	0.9	0.7	-1%	-2	1.0	0.1	-5.4
Next part.
SMILES	UCH37 inh	E coli growth	Vif A3G	B2AR ag	A1 inh	LANA-H2A inh	HNF4A DNA FP
CN(CC(=O)Nc1cccc(S(=O)(=O)N(C)C)c1)Cc1ccccc1	2.2	0.67	/	-26	0.9	-0.7	6.7
CC(=O)c1ccc(N2CCN(C(=O)c3ccc4nc[nH]c4c3)CC2)cc1	7.6	0.69	0%	-3	0.3	9.5	-0.8
COc1cccc(-c2cc(C(=O)N3CCN(S(=O)(=O)c4ccccc4)CC3)[nH]n2)c1	5.9	0.75	0%	-2	-1.2	-5.6	2.5
CCC(C(=O)NCc1ccco1)n1nc(C)c2c(C)n(-c3ccc(C)cc3)nc2c1=O (stereo unspecified)	5.7	0.67	/	2	0.8	1.8	-6.5
O=CN1CCN(C(C(=O)NC2CCCC2)c2ccc(Cl)cc2)CC1 (stereo unspecified)	0.4	0.72	5%	-11	-0.1	0.8	-2.8
CC(=O)Nc1ccc(NC(=O)C(C)OC(=O)/C=C/c2cn(-c3ccccc3)nc2-c2cccnc2)cc1 (stereo unspecified)	-70	0.73	8%	-23	16*	-4.5	-6.1
Cc1c(OC(C)C(=O)NCC(O)c2ccccc2)ccc2c3c(c(=O)oc12)CCCC3 (stereo unspecified)	-38	0.65	/	-10	1.6	-0.1	0.5
O=C1c2ccccc2CCc2ccccc21	0.7	0.64	-9%	8	/	/	0.0
CN(CC(=O)Nc1ccc(F)cc1)C(=O)COC(=O)/C=C/c1ccccc1[N+](=O)[O-]	3.3	0.66	2%	-2	0.1	4.3	0.3
CN(C)CCSc1nc(-c2ccccc2)nc2c1CCC2	1.0	0.68	/	-2	-0.2	-3.3	3.5
CCCCN(C(=O)c1ccc(C)o1)c1c(N)n(CCCC)c(=O)[nH]c1=O	2.5	0.66	8%	4	0.5	-1.0	2.9
CCOc1ccccc1Nc1cc(C)nc2nnnn12	0.7	0.67	4%	-3	0.0	-1.5	-1.1
COc1ccc(C(=O)CN2C(=O)NC3(CCCCC3)C2=O)cc1OC	-1.6	0.66	/	8	0.5	-0.1	2.8
Cc1cc(C(F)(F)F)nn1CC(=O)NNC(=S)Nc1cccc(Cl)c1	3.2	0.69	2%	4	0.4	-2.3	2.3
Cc1ccc(-n2ccc(=O)c(C(=O)Nc3ccc(S(=O)(=O)Nc4nccs4)cc3)n2)cc1	3.4	0.65	/	3	0.5	0.4	-3.0
N=C1CCCN1CC(=O)c1ccc(Br)cc1	1.0	0.69	/	4	0.0	3.5	-0.9
O=c1ccc2cc(S(=O)(=O)Nc3ccc(Br)cc3)ccc2o1	6.4	0.63	/	-12	0.2	-9.1	8.0
COc1ccc(/C=C/c2cccc[n+]2C)c(O)c1	9.6	0.68	3%	5	-0.1	2.4	-0.5
CCN=C1SC(C(=O)Nc2ccc(OC)cc2)CC(=O)N1CC (stereo unspecified)	-0.5	0.72	-1%	6	-0.3	4.4	5.6
CCOC(=O)COc1cc(Br)c(/C=N/Nc2ccccc2)cc1OC	/	/	?	15	-0.2	-0.2	-7.7
CCN1CCc2nc(NC(=O)C(c3ccccc3)c3ccccc3)sc2C1	1.1	0.69	-21%	17	-0.1	-2.4	6.3
O=C(c1ccc2c(c1)OCO2)N1CCN=C1SCc1ccccc1	3.9	0.74	-5%	4	0.0	0.7	0.7
CCOP(=O)(c1ccc(N(C)C)cc1)C(O)c1cc(OC)c(OC)c(OC)c1 (stereo unspecified)	0.4	0.67	2%	2	0.8	-0.7	1.1
COCCN1CCN(C(=O)C2CCC(=O)N(CCc3ccc(Cl)cc3)C2)CC1 (stereo unspecified)	1.1	0.66	26%	2	0.3	-6.1	4.8
Cc1ccccc1Nc1nnc(SCc2nc3ccccc3c(=O)[nH]2)s1	/	/	?	/	0.0	-0.7	/

Only B2AR ag and A1 inh, for 2 of the compounds above:
SMILES | B2AR ag | A1 inh
CCOc1ccc(CN2CCN(CC3=Cc4cccc(OC)c4OC3)CC2CCO)cc1 (stereo unspecified) | -11 | 1.2
CC(C)Oc1ccc(CCC(=O)N/N=C/c2ccc3c(c2)OCO3)cc1 | -5 | -0.4

Taken from above.
HNF4A DNA FP with Cc1ccc(-n2ccc(=O)c(C(=O)Nc3ccc(S(=O)(=O)Nc4nccs4)cc3)n2)cc1 = -3.0
E coli growth with CC(=O)Nc1ccc(NC(=O)C(C)OC(=O)/C=C/c2cn(-c3ccccc3)nc2-c2cccnc2)cc1 (stereo unspecified) = 0.73
A1 inh with CCOP(=O)(c1ccc(N(C)C)cc1)C(O)c1cc(OC)c(OC)c(OC)c1 (stereo unspecified) = 0.8
B2AR ag with CN(CC(=O)Nc1cccc(S(=O)(=O)N(C)C)c1)Cc1ccccc1 = -26
B2AR ag with O=C1c2ccccc2CCc2ccccc21 = 8
E coli growth with CC(=O)c1ccc(N2CCN(C(=O)c3ccc4nc[nH]c4c3)CC2)cc1 = 0.69

(list continues)
SMILES	UCH37 inh	E coli growth	Vif A3G	B2AR ag	A1 inh	LANA-H2A inh	HNF4A DNA FP
O=C(Cc1ccc([N+](=O)[O-])cc1)Nc1cccc(C(=O)N2CCOCC2)c1	-0.2	0.58	/	-1	2.6	-2.1	-2.7
CN(CCC#N)C(=O)CC1(Cc2ccccc2)CCOC(C)(C)C1 (stereo unspecified)	2.8	0.73	-1%	1	-0.6	6.0	0.3
COc1ccc(CNC(=O)Cn2nc([N+](=O)[O-])c(Br)c2C)cc1	3.8	0.66	-8%	0	0.2	-4.5	1.2
O=C(NCc1cccc(F)c1)c1ccc2nc(N3CCOCC3)sc2c1	4.8	0.75	/	3	-0.6	2.6	-1.2
O=C1CSC(c2nn(-c3ccccc3)cc2-c2cc3ccccc3oc2=O)N1Cc1ccco1 (stereo unspecified)	-124	0.7	73%&5%	-9	-0.3	-14	-4.2
CC(=O)NC(NC(=S)Nc1ccc(N=Nc2ccccc2C)cc1C)C(Cl)(Cl)Cl (stereo unspecified)	6.0	0.7	-4%	1	-0.8	-0.1	-0.6
Cc1cc(C)c(NC(=O)c2ccc(CNS(=O)(=O)c3cc(C(F)(F)F)ccc3Cl)cc2)c(C)c1	0.7	0.62	/	5	0.5	0.6	-0.4
COc1cc(C)c(CN2CCCCC2CO)cc1C (stereo unspecified)	4.4	0.73	3%	8	0.1	2.8	-0.5
CN(C)CCNc1oc(-c2cccc(Cl)c2)nc1C#N	-202	0.68	13%	4	-0.3	-0.1	3.0
Cc1ccc(/C=N\NC(=O)CNC(=O)C23CC4CC(CC(C4)C2)C3)o1	/	/	-8%	2	-0.8	0.3	-3.5
CCOC(=O)N1CCC(N2C(=O)c3ccccc3C2=O)CC1	2.0	0.74	0%	10	0.2	-1.1	5.8
O=C(CCSc1ccc(Cl)cc1)NC12CC3CC(CC(C3)C1)C2	4.9	0.67	13%	0	-1.4	-0.6	-0.1
COC(=O)c1ccc(CSc2nnc(-c3ccncc3)n2Cc2ccccc2)o1	0.4	0.68	6%	7	0.0	-3.2	0.9
CC(CC(=O)O)CC(=O)Nc1cc([N+](=O)[O-])ccc1O (stereo unspecified)	12	0.65	/	0	0.6	-0.4	1.1
COc1ccccc1N1CCN(CCCN2C(=O)C3CCCN3C2=O)CC1 (stereo unspecified)	/	/	5%	0	/	/	-1.0
N#Cc1c(NC(=O)CSc2nc3ccccc3c(=O)n2Cc2ccco2)sc2c1CCCC2	0.1	0.77	/	-3	1.1	3.2	-1.8
CC(Oc1ccccc1)C(=O)NC1CCCCCCC1 (stereo unspecified)	1.3	0.72	-2%	6	0.3	0.2	-2.1
Cc1ccc(NC(=O)CC2S/C(=N/c3nccs3)N(C)C2=O)c(C)c1 (stereo unspecified)	/	/	2%	0	0.2	-2.4	4.2
CC(C)(C)OC(=O)N1Cc2[nH]c3ccccc3c2C[C@@H]1C(=O)O	3.8	0.7	3%	-6	1.8	-2.8	-0.7
